Vif TR-FRET: inhibitors of Vif binding to APOBEC3G peptide, primary screen, biochemical, TR-FRET, GST-Vif 1-94, biotin-A3G peptide, dose response retest (AID 1117319); Virion infectivity factor (Human immunodeficiency virus type 1 group M subtype B (isolate …; TR-FRET GST-Vif / biotin-A3G peptide binding; higher % means a stronger effect; test concentration not given here; strong numbers were not always called active; one-dose inhibition, %; IC50 in µM for titrated hits; 0.57% of 260,000 active;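 active means above the screen mean plus three standard deviations and confirmed in dose response; inconclusive means results disagree or hit not tested in dose response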;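 further: Vif residues 1-94 fused to GST binding biotinylated APOBEC3G peptide 110-148; 0% = full assay without inhibitor and 100% = GST in place of GST-Vif; retest series ran down from 100 µM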
HNF4A DNA FP: change in binding of human HNF4A to DNA, primary screen, biochemical, fluorescence polarization, FITC-DNA | Hepatocyte nuclear factor 4-alpha (Homo sapiens), P41235 | 1 h | activity change, % at 10 µM | 0.3% of 360,000 active; in the data active means activity change above about 30%, passing the limit was not always enough;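 further: controls were the assay level and a saturating level of protein; the project sought stronger binding though the title names inhibitors; some compounds called inactive have numbers as strong as hits; positive values seem to mean higher polarization but the record does not say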
Ecoli rRNA inh: reduced GFP signal of wild-type E. coli, primary screen, bacterial rRNA inhibitor project, GFP/RFP fluorescence, OD600, single point; E. coli WT GFP vs humanized-ribosome RFP mutants, 24 h; stronger effect = lower value; DMSO median 0, no signal -100; GFP signal change (wild-type ribosome), % (concentration not given with the values); 1.6% of 350,000 active; AID 720706, 2013;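 active means significant combined selectivity score with lowered wild-type GFP, culture density cut under 30%, mutant RFP and density less affected; inactive means any of these conditions unmet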; further: one replicate is shown; some compounds called inactive have numbers as strong as hits
AF4-AF9 inh: inhibitors of AF4 peptide binding to AF9, primary screen, biochemical, AlphaScreen, biotin-AF4 peptide, FLAG-AF9, single point; Protein AF-9 (Homo sapiens), P42568; inhibition, % at 10 µM; 0.47% of 350,000 active;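 active means every replicate reaching a set inhibition limit, whatever the replicate mean, cut at about 25% in these data; inconclusive means mean inhibition reaches that limit but some replicates miss it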;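 further: 0% = plate neutral control median and 100% = total signal loss; the record names both 10 and 1 µM as test concentration; the first replicate is given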
Target sequence (P42568 whole entry, looked up): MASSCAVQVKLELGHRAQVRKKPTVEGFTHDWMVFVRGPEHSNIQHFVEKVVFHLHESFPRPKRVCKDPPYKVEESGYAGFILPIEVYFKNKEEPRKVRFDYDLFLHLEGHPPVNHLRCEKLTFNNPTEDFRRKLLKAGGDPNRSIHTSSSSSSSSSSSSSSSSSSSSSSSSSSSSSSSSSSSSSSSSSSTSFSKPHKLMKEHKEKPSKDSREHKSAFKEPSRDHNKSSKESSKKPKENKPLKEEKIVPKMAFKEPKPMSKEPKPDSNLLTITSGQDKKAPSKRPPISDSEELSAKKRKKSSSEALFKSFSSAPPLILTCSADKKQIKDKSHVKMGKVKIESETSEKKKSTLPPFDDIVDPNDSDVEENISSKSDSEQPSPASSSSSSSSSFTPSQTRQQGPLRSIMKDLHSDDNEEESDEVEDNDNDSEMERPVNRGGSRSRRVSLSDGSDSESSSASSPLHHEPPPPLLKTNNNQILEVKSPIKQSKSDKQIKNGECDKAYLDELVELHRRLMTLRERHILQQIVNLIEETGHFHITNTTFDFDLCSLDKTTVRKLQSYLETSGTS
FGF22 binding: binders of human FGF22 protein, primary screen, FGF22 synaptogenesis inhibitor project, biophysical, thermal shift, single point. AID 651658, 2012. Fibroblast growth factor 22 (Homo sapiens), Q9HCT0. calls only at 9.99 µM. recombinant FGF22 thermal shift, SYPRO orange fluorescence; percent of sucrose octasulfate shift, DMSO zero. 1.5% of 340,000 active;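 active means melting point raised past a set limit in the mean and every replicate; inconclusive means no clear call; three in four hits are not shown here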
Target sequence (Q9HCT0 whole entry, looked up): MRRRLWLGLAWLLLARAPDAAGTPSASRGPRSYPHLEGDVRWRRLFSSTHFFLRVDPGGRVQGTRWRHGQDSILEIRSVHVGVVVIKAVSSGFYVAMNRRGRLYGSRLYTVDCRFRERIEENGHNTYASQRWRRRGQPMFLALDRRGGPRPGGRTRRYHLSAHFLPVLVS
ALR inh: inhibitors of human ALR sulfhydryl oxidase, primary screen, biochemical, H2O2 detection, HRP-luminol luminescence, single point; FAD-linked sulfhydryl oxidase ALR (Homo sapiens), P55789; purified ALR, DTT oxidation; inhibition, % (test concentration not listed); 3.8% of 290,000 active;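 active means mean and each replicate at 75% or more; inconclusive means only one of the two met; inactive means neither met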;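 further: stock transfer was 7.5 nL into about 7.5 µL; 0% = neutral wells and 100% = wells with inactivated enzyme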
Target sequence (P55789 whole entry, looked up): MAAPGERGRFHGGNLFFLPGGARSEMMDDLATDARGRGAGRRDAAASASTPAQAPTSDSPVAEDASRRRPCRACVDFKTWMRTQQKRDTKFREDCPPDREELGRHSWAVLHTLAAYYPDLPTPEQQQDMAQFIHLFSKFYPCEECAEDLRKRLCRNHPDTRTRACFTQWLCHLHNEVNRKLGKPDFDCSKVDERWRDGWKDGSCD
Ecoli growth: E. coli growth inhibition, primary screen, OD600 | Escherichia coli growth, 23 h; stronger effect = lower value | OD600 absorbance (concentration not given with the values) | 0.21% of 330,000 active;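 active means OD600 absorbance below the run mean of sample wells minus 3.6 SD, in any replicate, cut at about 0.56 in these data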;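 further: stock transfer was 300 nL into about 60 µL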
Ecoli rRNA inh OD600: recorded beside Ecoli rRNA inh, whose call it bears; OD600 change, %; measured here: OD600 growth;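 optical density of the mix in the first replicate; 0 = DMSO median and -100 = no signal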
Ecoli rRNA inh RFP: further read-out of Ecoli rRNA inh, marked with its call; RFP signal change, %; measured here: RFP humanized mutant strains;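 first replicate; 0 = DMSO median and -100 = no signal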
* marks the source's active call; other numbers are inactive results; i = inactive; ? = inconclusive; . = no result given. Only part of the results is shown; count on the stated rates, not on these rows.

SMILES	Vif TR-FRET	HNF4A DNA FP	Ecoli rRNA inh	Ecoli rRNA inh OD600	Ecoli rRNA inh RFP	AF4-AF9 inh	FGF22 binding	ALR inh	Ecoli growth
COc1cc(NC(=O)C/C(C)=N/NC(=O)Cc2ccc(Cl)cc2)c(OC)cc1Cl	16%	-3.3	.	.	.	.	.	3	.
CCOc1cccc(/C(O)=C2/C(=O)C(=O)N(Cc3ccco3)C2c2ccncc2)c1 (centres undefined)	16%	0.9	.	.	.	.	.	4	0.68
CC(=O)COc1c(-c2ccco2)oc2ccccc2c1=O	.	0.5	5	6	-2.0	-1.1	i	-8	0.64
CC(C)NC(=O)c1ccc(COCC(F)(F)C(F)F)cc1	77%	0.4	.	.	.	.	.	-4	0.7
CC(=O)c1cccc(NC(=O)c2ccco2)c1	3%	0.4	.	.	.	.	.	-6	0.75
Cc1noc(C)c1NC(=O)Nc1cccc2c1O[C@@H](CN(C)C(=O)Nc1cccc3ccccc13)[C@@H](C)CN([C@@H](C)CO)C2=O	.	.	-8	4	-2.3	3.2	i	.	.
Cc1ccc2c(c1)c(-c1ccccc1)nc1nnnn12	-110%	2.6	-3	9	-2.8	-1.6	i	-18	0.72
O=S(=O)(c1ccc(Cl)cc1)c1cc(O)ccc1O	.	-3.8	-2	-2	1.6	-6.7	i	99*	0.62
COc1ccc(C)cc1NC(=O)Cn1cnc2sc(C)c(S(=O)(=O)N3CCOCC3)c2c1=O	13%	-3.7	.	.	.	.	.	-20	0.7
CC1CCCCC1NC(=O)C1CCN(S(=O)(=O)c2cccc3nsnc23)CC1 (centres undefined)	-1%	2.7	.	.	.	.	.	1	0.68
COc1ccc(CC(=O)OCc2nnc(C3COc4ccccc4O3)o2)cc1OC (centres undefined)	10%	-0.5	.	.	.	.	.	0	0.68
COc1cc(/C=C2\C(C)=C(C#N)c3nc(N)c(C#N)c(C)c32)ccc1OCC(=O)O	?	1.4	10	1	20	0.4	i	16	.
CCCc1nnc(SCC(=O)Nc2cccc(C(F)(F)F)c2)o1	.	0.8	0	7	2.7	-2.0	i	0	0.63
Cc1noc(C(=O)N2CCN(c3ccc(F)cc3)CC2)c1Cl	32%	3.5	12	8	6.5	-0.5	i	38	0.71
FC(F)(F)c1cc(C(F)(F)F)c2ccc(N3CCN(c4ccc(Cl)cc4)CC3)nc2n1	3%	-3.1	.	.	.	.	.	-5	0.75
O=C(c1cc2n(n1)C(C(F)(F)F)CC(c1ccco1)N2)N1CCN(c2ccccn2)CC1 (centres undefined)	-2%	1.7	.	.	.	.	.	-7	0.72
CN(CC(=O)NCc1ccc2c(c1)OCO2)S(=O)(=O)c1ccc(Br)s1	?	0.6	.	.	.	.	.	.	0.7
O=C1c2ccccc2C(=O)c2c1cccc2N1CCN(Cc2ccccc2)CC1	-4%	3.8	.	.	.	.	.	7	0.67
CCC(=O)N(C)C[C@@H]1[C@@H](c2ccc(-c3ccccc3F)cc2)[C@H](CO)N1C(C)=O	.	.	-4	-3	-0.2	1.4	i	.	.
O=C(OCc1ccccc1Cl)c1cc([N+](=O)[O-])ccc1N1CCOCC1	8%	6.0	-3	-1	0.7	11	i	.	0.74
CC(C)COC(=O)c1nnsc1NC(=O)Nc1ccccc1	15%	-1.9	.	.	.	.	.	-2	0.71
COc1cc(OC)c(C2=NOC(C(=O)NCCc3ccccc3)C2)cc1Cl (centres undefined)	11%	-6.5	.	.	.	.	.	.	0.69
CCN(CC)S(=O)(=O)c1cc(C(=O)O)ccc1Cl	9%	1.9	.	.	.	.	.	-4	0.7
COc1cccc(-c2ccc([C@H]3[C@@H](CO)N4CCCCN(C(=O)c5ccc(F)cc5)C[C@H]34)cc2)c1	.	.	-55	-74	-9.5	-0.6	i	.	.
CN1C(=O)c2cc(NC(=O)Nc3ccccc3)ccc2OC[C@H]2O[C@H](CC(=O)NC3CCC3)CC[C@@H]21	.	.	0	2	1.2	-0.7	i	.	.
Cc1c(NC(=O)CSC2=C(C#N)C(c3ccccc3F)CC(=O)N2)c(=O)n(-c2ccccc2)n1C (centres undefined)	20%	2.2	.	.	.	.	.	0	0.75
CCC(=O)Nc1ccc2c(c1)C(=O)N(C)C[C@H](OC)[C@@H](C)CN(Cc1ccccn1)[C@H](C)CO2	.	.	4	4	-2.2	-1.3	i	.	.
CC1Cc2cc(/C(O)=C3/C(=O)C(=O)N(CCCN4CCOCC4)C3c3ccc(C(C)C)cc3)ccc2O1 (centres undefined)	.	-1.4	1	0	0.0	1.7	i	9	0.65
CC(C)C(=O)Nc1cccc(NC(=S)NC(=O)c2cccs2)c1	2%	-0.2	17	21	5.7	-1.5	i	-11	0.76
CCN(CCn1cccn1)C(=O)CC1C(=O)NCCN1CCc1ccccc1 (centres undefined)	18%	0.4	8	13	-1.9	1.2	i	-22	0.68
COc1ccc(NC(=O)Cn2nnc(-c3ccccc3N)n2)cc1OC	9%	2.3	-10	-12	0.1	.	.	-7	0.66
CCN(CC)C(=O)/C(=C/c1cn(S(=O)(=O)N(C)C)c2ccccc12)NC(=O)c1ccc(OC)cc1	-4%	0.7	2	2	-3.8	-2.0	i	-4	0.71
CC(C)c1ccc(C(=O)NCCCNC(=O)c2cnccn2)cc1	.	-1.6	8	7	0.9	-5.2	i	5	.
Cc1cc(=O)oc2cc(OC(C)C(=O)O)c(Cl)cc12 (centres undefined)	0%	1.7	.	.	.	.	.	1	0.69
O=C(CCn1c(=O)oc2ccccc21)N1CCCCCC1	10%	3.2	.	.	.	.	.	-1	0.74
CCOC(=O)c1c(NC(=O)COC(=O)Cc2n[nH]c(=O)c3ccccc23)sc(C(=O)NC)c1C	.	2.1	10	15	0.0	0.0	i	-2	0.67

Structures shown so far with a CF3 group (3):
SMILES	Vif TR-FRET	HNF4A DNA FP	Ecoli rRNA inh	Ecoli rRNA inh OD600	Ecoli rRNA inh RFP	AF4-AF9 inh	FGF22 binding	ALR inh	Ecoli growth
CCCc1nnc(SCC(=O)Nc2cccc(C(F)(F)F)c2)o1	.	0.8	0	7	2.7	-2.0	i	0	0.63
FC(F)(F)c1cc(C(F)(F)F)c2ccc(N3CCN(c4ccc(Cl)cc4)CC3)nc2n1	3%	-3.1	.	.	.	.	.	-5	0.75
O=C(c1cc2n(n1)C(C(F)(F)F)CC(c1ccco1)N2)N1CCN(c2ccccn2)CC1 (centres undefined)	-2%	1.7	.	.	.	.	.	-7	0.72

Further compounds
SMILES	Vif TR-FRET	HNF4A DNA FP	Ecoli rRNA inh	Ecoli rRNA inh OD600	Ecoli rRNA inh RFP	AF4-AF9 inh	FGF22 binding	ALR inh	Ecoli growth
COc1ccccc1C1Nc2ccccc2NC2=C1C(=O)CC(C)(C)C2 (centres undefined)	.	2.9	14	-20	37	0.9	i	99*	0.62
C[C@@H]1CN([C@H](C)CO)S(=O)(=O)c2ccc(C#CC3CC3)cc2O[C@@H]1CN(C)C(=O)c1cnccn1	.	.	-2	-4	-2.2	2.8	i	.	.
CC(=O)N1c2ccc(S(=O)(=O)NCCC(=O)NCCc3cccc(C)c3)cc2CC1C (centres undefined)	-1%	5.2	-3	-7	2.8	-2.0	i	-1	0.65
Cc1ccc(S(=O)(=O)N[C@@H]2C=C[C@H](CC(=O)NCc3ccccc3F)O[C@@H]2CO)cc1	.	.	-3	-5	-1.8	2.7	i	.	.
CSc1nc(NCc2ccco2)c2ccccc2n1	-3%	0.1	.	.	.	.	.	0	0.7
O=C(NCCCN1CCCC1=O)Nc1ccc(Cl)cc1	1%	2.4	.	.	.	.	.	-1	0.69
C[C@@H]1CCCCO[C@H](CN(C)Cc2ccc(C(F)(F)F)cc2)[C@H](C)CN([C@H](C)CO)C(=O)c2cc(NS(=O)(=O)c3cccs3)ccc2O1	.	.	-1	-22	15	0.8	i	.	.
Cc1nn(CC(=O)N(C)Cc2ccccc2)c(=O)c2cccn12	.	-3.4	5	5	-1.3	1.4	i	-6	0.7
Cc1ccc(CN2C(=O)C(=O)N(CC(N)=O)C2=O)cc1	-3%	2.6	6	8	0.1	2.6	i	-3	0.68
Cc1cc(C)nc(NC(=S)Nc2ccccc2)n1	7%	-3.9	-10	-28	-3.2	-1.2	.	0	0.72
c1ccc(-c2nnc(-c3ccccc3)c(-c3c[nH]c4ccccc34)n2)cc1	-4%	0.8	.	.	.	.	.	.	0.83
CCC(C)(C)n1nnnc1C(c1cc(OC)c(OC)c(OC)c1)N1CCN(c2ccccc2)CC1 (centres undefined)	-6%	0.0	.	.	.	.	.	-8	0.73
CSCCC(=O)N1CCCC(CNC(=O)c2ccc(-c3ccccc3)cc2)C1 (centres undefined)	2%	1.8	-8	-7	-1.1	1.2	i	-6	0.68
O=C(NC[C@H]1N[C@@H](CO)[C@H]1c1ccc(-c2ccccc2F)cc1)c1ccccn1	.	.	-7	-6	2.2	0.4	i	.	.
CCc1ccccc1NC(=S)N1CCC(NC(=O)c2ccc(OC)cc2)CC1	.	-3.5	21	16	1.2	-0.3	i	-3	0.67
CN(Cc1ccc(F)cc1)S(=O)(=O)c1nnc(NC(=O)c2ccccc2Br)s1	.	-2.6	-1	2	-1.2	-2.7	i	18	0.69
CC(C)c1ccc(C2(C)NC(=O)N(CC(=O)NC3CCCC(C)C3C)C2=O)cc1 (centres undefined)	.	2.2	-3	-12	1.1	-1.8	i	.	0.69
Cc1ccccc1C(=O)Nc1ccnn1C1CCN(Cc2ccncc2)CC1	12%	-4.1	18	8	3.4	-2.2	i	-11	0.69
O=C(NCCc1ccccc1)C(=O)Nc1ccc([N+](=O)[O-])cc1	-1%	1.0	11	3	-1.3	-0.7	i	-3	0.72
Cc1ccc(Cl)cc1NC(=O)CCS(=O)(=O)c1cccc2nonc12	.	2.9	0	0	-2.0	-1.8	i	.	0.68
COCC(=O)N1C[C@H](C)[C@H](OC)CN(C)C(=O)c2cc(NS(C)(=O)=O)ccc2OC[C@H]1C	.	.	3	0	-1.8	-2.9	i	.	.
O=C(COC(=O)CNC(=O)c1ccc(Cl)cc1Cl)NCc1ccco1	3%	0.4	1	12	-2.2	-9.9	i	-1	0.68
Cc1nn(C)c(C)c1NS(=O)(=O)c1ccccc1Cl	-9%	3.2	3	0	2.4	-5.6	i	3	0.69
CCCCNC(=O)N1CCC(CCC(=O)N(C)Cc2ccccc2)CC1	-2%	-1.3	-1	1	0.1	-2.3	i	-3	0.68
COc1ccc(COC[C@H](CC(C)C)N2CCN(C(=O)c3cccc(C(F)(F)F)c3)CCC2=O)cc1	.	4.5	-25	-49	-5.5	-1.1	i	.	.
Cc1c(NC(=O)CN2C(=O)NC(CCc3ccccc3)C2=O)c(=O)n(-c2ccccc2)n1C (centres undefined)	?	-4.5	-1	0	-1.5	-0.1	i	-13	0.68
Cc1ccc(S(=O)(=O)Nc2ccc3c(c2)C(=O)N([C@H](C)CO)C[C@H](C)[C@H](CN(C)S(=O)(=O)c2ccccc2)O3)cc1	.	.	1	0	8.3	0.3	i	.	.
C[C@@H]1CN([C@@H](C)CO)C(=O)c2cc(C#CC3CCCC3)cnc2O[C@H]1CN(C)S(C)(=O)=O	.	.	2	7	-1.9	0.7	i	.	.
Cc1nnc(SCC(=O)c2c(N)n(Cc3ccccc3)c(=O)n(C)c2=O)n1C	.	-3.1	5	-6	0.6	-2.6	i	-1	0.7

Bioassay records (PubChem)
